Assay outcomes as filed in PubChem BioAssay.
KCNQ2 block: KCNQ2 channel blockers in CHO-K1 cells – cell-based, FluxOR thallium flux, B-score, primary screen (AID 2156) | O88943 | 20 min; hits give low values; only compounds with negative scores are shown here; some inactives read as strong as hits | B-score at 10 µM | 310,000 compounds, 1.1% hits;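 active = fluorescence ratio B-score at most minus 3 library SDs, with starting brightness B-score within 2 library SDs, cut at about -5.5 in these data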
Target sequence (O88943 whole entry, looked up): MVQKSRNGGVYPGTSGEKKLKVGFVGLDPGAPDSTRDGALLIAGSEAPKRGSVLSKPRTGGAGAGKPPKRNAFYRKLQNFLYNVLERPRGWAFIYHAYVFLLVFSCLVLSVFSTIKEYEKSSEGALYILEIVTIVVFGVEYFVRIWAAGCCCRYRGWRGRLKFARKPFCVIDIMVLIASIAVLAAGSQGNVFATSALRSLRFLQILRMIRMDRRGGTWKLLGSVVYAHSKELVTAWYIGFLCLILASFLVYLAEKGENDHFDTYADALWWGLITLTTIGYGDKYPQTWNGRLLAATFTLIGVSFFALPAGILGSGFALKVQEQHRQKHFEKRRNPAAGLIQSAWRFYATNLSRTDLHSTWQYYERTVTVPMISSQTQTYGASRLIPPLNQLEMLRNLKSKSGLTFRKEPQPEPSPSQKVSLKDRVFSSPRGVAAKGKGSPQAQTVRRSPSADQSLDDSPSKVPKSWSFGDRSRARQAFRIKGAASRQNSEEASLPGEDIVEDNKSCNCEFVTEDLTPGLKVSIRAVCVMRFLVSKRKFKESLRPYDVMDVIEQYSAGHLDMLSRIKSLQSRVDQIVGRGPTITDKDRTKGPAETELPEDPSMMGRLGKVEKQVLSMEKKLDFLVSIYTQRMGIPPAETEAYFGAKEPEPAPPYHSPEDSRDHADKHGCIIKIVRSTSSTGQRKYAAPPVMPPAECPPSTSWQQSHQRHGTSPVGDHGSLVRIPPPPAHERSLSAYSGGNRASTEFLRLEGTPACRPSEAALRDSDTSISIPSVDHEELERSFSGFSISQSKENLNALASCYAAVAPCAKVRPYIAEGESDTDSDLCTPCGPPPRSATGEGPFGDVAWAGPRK
KCNQ2 block baseline: also measured in KCNQ2 block; calls as there; B-score; measured here: initial fluorescence intensity artifact check;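 brightness before thallium and not channel activity; 0 = typical well and far values either way flag optical interference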
Starred values were filed as active, the others as inactive; i = inactive. This is a subset; count on the stated rates, not on these rows.

SMILES | KCNQ2 block | KCNQ2 block baseline
Cn1c(=O)c2c(nc(CN3CCN(c4ccc(F)cc4)CC3)n2Cc2ccccc2F)n(C)c1=O | i | -0.02
COC(=O)C(NC(=O)C(C)NC(=O)OCc1ccccc1)C(C)C (configuration not stated) | i | -1.6
CCCCCn1c(=O)[nH]c2cc(C(=O)NCc3ccco3)ccc2c1=O | i | -0.04
Cc1ccc(C(=O)C(OC(=O)CCC(=O)Nc2cccc(C)c2)c2ccccc2)cc1 (configuration not stated) | i | -0.82
COc1ccc(CNc2oc(-c3ccccc3)nc2C#N)cc1 | i | 0.64
Nc1nnc(SCC(=O)OCC(=O)c2ccccc2Br)s1 | i | -0.1
Cc1ccc(/C=C2\SC(=S)N(C(Cc3ccccc3)C(=O)O)C2=O)cc1 (configuration not stated) | i | 0.19
COc1ccc(-n2c(SCC(=O)Nc3sc4c(c3C#N)CCCC4)nnc2-c2ccccc2OC)cc1 | i | 0.46
COc1cccc(/C=C/C(=O)c2ccc3c(c2)OCCO3)c1OC | i | -0.68
COC(=O)c1[nH]c2ccccc2c1NS(=O)(=O)c1ccc(F)c(C)c1 | i | 1.2
O=C(CN(C(=O)c1csnn1)c1ccccc1C(F)(F)F)NCc1ccccc1 | i | 2.1
O=C1CN(C(=O)NCC(=O)N[C@@H](C(=O)O)c2ccccc2)c2ccccc2N1 | i | 0.45
CCOc1ccc(C2Nc3ccccc3NC3=C2C(=O)CC(C)(C)C3)cc1OC (configuration not stated) | i | -0.53
CNS(=O)(=O)c1cccc(C(=O)OCC(=O)Nc2ccccc2OC(F)F)c1 | i | 0.44
Cc1cc(C)c(C2=CC(c3ccccc3)n3ncnc3N2)cc1C (configuration not stated) | i | 2.7
COc1ccc(CSCC(=O)Nc2ccccc2SC)cc1 | i | -0.49
Oc1ccccc1C(=S)N1CCN(c2cccc(Cl)c2)CC1 | i | 0.78
COc1ccc(/C=C/C(=O)c2cc(F)ccc2OC(=O)c2ccccc2OC)cc1OC | i | -0.49
O=C(Cn1c(=O)[nH]c2ccccc2c1=O)N1CCN(Cc2ccc3c(c2)OCO3)CC1 | i | 0.08
COc1ccc(/C=N/NC(=O)CCn2nnc3ccccc32)cc1 | i | 0.01
COCc1cc(CN2CCCC(C(=O)Nc3ccc(-c4ccco4)cc3)C2)ccc1OC (configuration not stated) | i | -1.5
COc1ccccc1CNC(=O)[C@H](CCSC)NC(=O)[C@@H]1Cc2ccccc2CN1 | i | 0.12
Cc1cc(F)ccc1S(=O)(=O)Nc1c(C)n(C)n(-c2ccccc2)c1=O | i | 0.22
Cc1ccc(CN2CCC(c3nc4ccc(Cl)cc4[nH]3)CC2)cc1 | i | 0.46
O=C(NCCCn1ccnc1)c1ccc(Cl)c(S(=O)(=O)N2CCOCC2)c1 | i | 2.4
COc1ccc(OC)c(S(=O)(=O)N2CCC(C(=O)Nc3cccc(C(F)(F)F)c3)CC2)c1 | i | -0.98
O=C(Nc1ccc(Cl)c(-c2nc3ccccc3[nH]2)c1)c1cccnc1 | i | 0.04
S=c1[nH]nc(Cc2ccc(Cl)cc2)o1 | i | 0.77
COc1cccc(C(=O)NCC2(c3ccccc3)CCCC2)c1OC | -5.9* | 0.7*
CCOC(=O)C1CCCN(C(=O)C2c3ccccc3Oc3ccccc32)C1 (configuration not stated) | i | -1.2
O=C(N/N=C/C1CC=CCC1)c1cc(-c2cccnc2)nc2ccccc12 (configuration not stated) | i | -0.36
Cc1ccc(S(=O)(=O)N2CCN(C(=O)CN3CCOCC3)C2c2ccccc2)cc1 (configuration not stated) | i | -2.4
COCCOc1cc(NC(=O)c2sccc2Oc2ccc([N+](=O)[O-])cc2F)c(Cl)cc1Cl | i | -2.3
COc1ccc(-n2c(SCC(=O)Nc3cc(C)on3)nc3c([nH]c4ccccc43)c2=O)cc1 | i | 0.49
COC(=O)C1=COC(C)C2CN3CCc4c([nH]c5cc(OC)c(OC)cc45)C3CC12 (configuration not stated) | i | 2.8
O=C(Nc1ccc(N2CCCC2)cc1)C(c1ccccc1)c1ccccc1 | i | -0.05
O=[N+]([O-])c1ccc(Nc2nc(N3CCOCC3)nc(N3CCOCC3)n2)cc1 | i | 1.1
O=C(NCc1ccco1)c1ccc(CS(=O)(=O)c2cccc(C(F)(F)F)c2)o1 | i | -0.77
COc1ccc(C(=O)Nn2c(SCc3ccc([N+](=O)[O-])cc3)nc3ccccc3c2=O)cc1 | -6.2* | 0.34*
CCN(CC)C(=O)CC(c1ccc(N(C)C)cc1)c1c(OC)cc(OC)c2c(-c3ccccc3)cc(=O)oc12 (configuration not stated) | i | -0.49
CCC(C(=O)NC1CCCC1)N(C(=O)Cn1nnc(-c2ccc(C)o2)n1)C(C)(C)C (configuration not stated) | i | 0.09
O=C(Nc1ccc(S(=O)(=O)NCc2ccco2)cc1)c1ccc(F)cc1 | i | 3.1
CC1(C)NC(=O)N(CC(=O)OCc2cc(=O)n3cc(Br)ccc3n2)C1=O | i | 1.4
O=C(c1cccc(S(=O)(=O)N2CCCCC2)c1)N(CCc1ccccc1)Cc1ccccc1 | i | -2
O=C(COC(=O)C1CC(O)CN1S(=O)(=O)c1ccc(Cl)cc1)c1ccccc1Cl (configuration not stated) | i | -0.09
C/C(=N\N(c1ccccc1)c1ccccc1)c1ccco1 | i | 1.7
NNC(=O)[C@H](Cc1ccccc1)NC(=O)Nc1ccc2c(c1)OCCO2 | i | -0.62
N#CC(=C1CCCC1)c1nc(-c2ccccc2O)cs1 | i | -0.23
CCOC(=O)CSc1nnc(CNC(=O)c2cccs2)n1CCc1ccccc1 | i | -1.2
COc1ccc(CCNc2ccc(C(=O)O)cc2[N+](=O)[O-])cc1OC | i | -0.66
(more compounds)
SMILES | KCNQ2 block | KCNQ2 block baseline
O=S(=O)(NCc1ccccc1)NCc1ccccc1F | i | 0.07
O=C(NCCc1ccncc1)Nc1cccc(Cl)c1 | i | -0.14
CCCOC(=O)c1ccc(OCC(O)Cn2c(C)nc3ccccc32)cc1 (configuration not stated) | i | 0.11
COc1ccc(CN2CCNC(=O)C2CC(=O)N(C)Cc2nccs2)cc1OC (configuration not stated) | i | 2.2
CCOC(=O)Cn1c(C)c(Br)c(=O)c2cccc(C)c21 | i | -0.82
COC(=O)Nc1ccc(C)c(NC(=O)OC)c1 | i | 1.3
CC1CN(c2nc3ccccc3nc2C(C#N)C(=O)NCc2ccc3c(c2)OCO3)CC(C)O1 (configuration not stated) | -5.6* | 2.6*
O=C(NC12CC3CC(CC(C3)C1)C2)N1CCN(c2ccccn2)CC1 | i | -0.64
COc1ccccc1NC(=O)CSc1nnc(CC(=O)Nc2ccccc2C)n1C | i | -0.03
CN(CC(=O)Nc1ccccc1Br)C(=O)c1ccc(-c2ccc(Cl)cc2)o1 | i | -0.79
Cc1nc2cc(NC(=O)Nc3cccc(F)c3)ccc2n1C | i | -0.79
O=C(CN1C(=O)/C(=C/c2ccccc2F)Sc2ccccc21)N1CCN(c2ccccn2)CC1 | i | 1.2
C=CCn1c(=O)c(C(=O)NC(C)c2ccccc2)c(O)c2ccccc21 (configuration not stated) | -8.2* | 0.36*
COC(=O)c1c(C)[nH]c(C=Nc2ccc(OC)cc2)c1C | i | -0.25
Cc1cc(NC(=O)COc2ccccc2C)ccc1NC(=O)c1ccco1 | i | 1.2
COCCNC(=O)Cn1nc(-c2ccccc2F)ccc1=O | i | 0.62
C#CCOC(=O)C1C2C=CC(C2)C1C(=O)O (configuration not stated) | i | -0.16
O=C(c1ccnc(Cl)c1)N1CCCC(N2CCN(c3ccccc3F)CC2)C1 (configuration not stated) | i | -0.93
C=CCn1cc(C(=O)NCCOC)c(=O)c2cc(S(=O)(=O)N3CCCCCC3)ccc21 | i | 1.3
COc1nccc(-c2ccc(F)cc2)c1C#N | i | 0.02
Cc1ccc(S(=O)(=O)CCC(=O)OCC(=O)c2ccc(F)cc2)cc1 | i | -0.37
Cn1ccnc1SCC(=O)c1ccc(F)cc1 | i | -0.25
CC(C)(C)c1ccc(C(=O)N2CCN(CCNC(=O)C(=O)NCc3ccccc3)CC2)cc1 | i | 1.2
O=C(NNC(=S)NCC1CCCO1)c1cccc(S(=O)(=O)N2CCOCC2)c1 (configuration not stated) | i | -0.05
CCOC(=O)c1c(C)[nH]c(C)c1S(=O)(=O)N(C)Cc1ccco1 | i | -1.7
Cc1ccc(C(=O)NCCCNCCCNC(=O)c2ccc(C)nc2)cn1 | i | 1.1
N/C(Cn1cncn1)=N\OC(=O)c1ccc(Cl)cc1Cl | i | 2.2
COc1ccc(NC(=S)N2CCC(NC(=O)c3ccccc3C)CC2)cc1 | i | 0.01
COc1ccccc1-n1c(=O)c(C#N)c(-c2ccc([N+](=O)[O-])cc2)c2cc(C(=O)c3ccccc3O)cnc21 | i | 0.16
CC(C)(C)N(Cc1ccccc1)C(=O)COc1cccnc1[N+](=O)[O-] | i | 1.2
Cc1ccc(C)c(N2CCN(c3cnn(-c4nc5ccccc5s4)c(=O)c3Cl)CC2)c1 | i | -0.35
COc1cc(CCC(=O)N2CCN(c3ccc([N+](=O)[O-])cc3)CC2)cc(OC)c1OC | i | 1.5
CSc1ccc(C#N)cc1NC(=O)c1ccccc1C | i | 0.51
CC(=O)c1cccc(OCC(=O)c2cc(C)n(-c3cc(C)on3)c2C)c1 | i | -1.3
O=C1c2ccccc2NC(c2ccccc2)N1Cc1ccco1 (configuration not stated) | i | -0.91
O=C(CSc1ccc2nnc(-c3ccccc3)n2n1)NCC1CCCO1 (configuration not stated) | i | 1.8
CN(CC(=O)Nc1cccc(F)c1)C(=O)c1cc(-c2ccccc2)nc2ccccc12 | i | -0.23
C=CCn1c(SCC(=O)Nc2cc(C)ccc2OC)nnc1-c1ccco1 | i | -0.86
CCCn1c2ccccc2c2cnn(CC(=O)NCCCN3CCN(c4ccccc4)CC3)c(=O)c21 | i | 4
CCCN1C(=O)C(Cc2nc3ccccc3c(=O)n2C)c2ccccc21 (configuration not stated) | i | 2.6
O=C(NCc1ccc(F)cc1)c1cc(-c2cccs2)on1 | i | -1.3
O=S1(=O)C=C(N2CCOCC2)c2ccccc21 | i | 0.72
O=C(Nc1cccc(Cl)c1)Nc1nnc(-c2ccccc2)o1 | i | 0.1
OC(c1cc(-c2ccc(Cl)cc2)nc2ccccc12)C1CCCCN1 (configuration not stated) | -7.3* | -0.64*
O=C(Nc1cnc2ccccc2c1)C1COc2ccccc2O1 (configuration not stated) | i | -1.8
FC(F)(F)c1ccc(/C=N/n2c(C3CCCCC3)n[nH]c2=S)cc1 | i | 0.19
CN(C)c1ccc(CN(CC2CCCO2)C(=O)c2cccs2)cc1 (configuration not stated) | i | 1.2
CC(=O)N1CCc2c(sc(NC(=O)Cc3ccccc3)c2C#N)C1 | i | 1.1
COc1ccccc1N=C1SCC(=O)N1c1ccccc1OC | i | 0.04
O=C(OCC(=O)N1CCc2ccccc21)c1cccnc1 | i | -0.1
Further compounds:
SMILES | KCNQ2 block | KCNQ2 block baseline
CCOc1ccc2c(CC)cc(=O)oc2c1OCC | i | 1.4
O=C(NN1CCN(Cc2ccccc2)CC1)c1ccc(Cl)cc1 | i | 2.6
COCCNC(=O)c1cc2nc(-c3ccccc3)cc(C)n2n1 | i | 1.5
Cc1ccc(CCNC(=O)c2ccc(CS(=O)(=O)c3ccccc3C)o2)cc1 | i | 2.4
CCCc1nnc(NC(=O)C2CCN(C(=O)c3ccco3)CC2)s1 | i | -2.6
Cc1nc2cc(N3CCN(C)CC3)c(NC(=O)Cc3ccccc3)cc2c(=O)n1Cc1ccccc1 | i | 0.83
CCOc1ccccc1C(=O)NCC(=O)N(C)Cc1ccccc1C | i | -0.29
O=C(CCCC(=O)N/N=C/c1ccccc1C(=O)O)N/N=C/c1ccccc1C(=O)O | i | 0.71
Cc1ccc(S(=O)(=O)c2cccc(S(=O)(=O)N3CCOCC3)c2)cc1S(=O)(=O)N1CCOCC1 | i | 0.27
CCC(C)NC(=O)COC(=O)c1csc2c1CCCC2 (configuration not stated) | i | -1
CCCN1CCN(C(=O)c2ccccc2-c2nc3ccccc3s2)CC1 | i | 0.3
CC(C)C(CCNC1CCN(C)CC1)c1ccc(Cl)cc1 (configuration not stated) | i | 0.91
CC(C)Cn1c(SCC(=O)NC(=O)NC2CCCC2)nc2ccccc21 | i | 0.05
Cc1cc(C)nc(Nc2ccc(C(=O)O)cc2)n1 | i | 0.61
Cc1c(CN2CCN(CC(C)(C)C)C(CCO)C2)[nH]c2ccccc12 (configuration not stated) | i | -1.1
Brc1ccccc1/C=N/N1CCCCC1 | i | 2
